Ecoli rRNA inh = inhibitors of bacterial rRNA selective over humanized ribosomes | GFP signal change (wild-type ribosome), % (concentration not given with the values) | E. coli WT GFP vs humanized-ribosome RFP mutants, fluorescence, 24 h; hits give low values; DMSO median 0, no signal -100 | 350,000 compounds, 1.6% hits | AID 720706;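 active = significant combined selectivity score with lowered wild-type GFP, culture density cut under 30%, mutant RFP and density less affected; inactive = any of these conditions unmet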; note: one replicate is shown; some compounds called inactive have numbers as strong as hits
MLL AF4-AF9 inh = MLL-AF4/AF9 protein interaction inhibition. P42568. AlphaScreen, biotin-AF4 peptide binding to FLAG-AF9. 350,000 compounds, 0.47% hits. inhibition, % at 10 µM;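 active = every replicate reaching a set inhibition limit, whatever the replicate mean, cut at about 25% in these data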;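 note: 0% = plate neutral control median and 100% = total signal loss; the record names both 10 and 1 µM as test concentration; the first replicate is given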
Target sequence (P42568 whole entry, looked up): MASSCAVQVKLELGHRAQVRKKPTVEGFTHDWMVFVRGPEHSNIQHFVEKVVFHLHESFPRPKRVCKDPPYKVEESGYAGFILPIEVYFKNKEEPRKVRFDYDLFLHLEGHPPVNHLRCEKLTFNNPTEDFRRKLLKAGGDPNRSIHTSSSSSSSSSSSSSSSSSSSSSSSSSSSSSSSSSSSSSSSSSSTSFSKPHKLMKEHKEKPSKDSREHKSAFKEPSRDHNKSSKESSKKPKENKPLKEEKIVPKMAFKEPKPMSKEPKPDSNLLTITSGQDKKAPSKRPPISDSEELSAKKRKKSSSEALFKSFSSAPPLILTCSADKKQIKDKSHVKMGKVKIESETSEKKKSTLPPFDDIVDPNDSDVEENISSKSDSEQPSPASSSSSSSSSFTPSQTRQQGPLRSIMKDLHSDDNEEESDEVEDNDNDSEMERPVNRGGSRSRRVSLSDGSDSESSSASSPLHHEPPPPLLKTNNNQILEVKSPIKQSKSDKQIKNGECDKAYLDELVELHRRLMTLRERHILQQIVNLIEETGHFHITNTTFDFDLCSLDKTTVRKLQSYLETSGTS
FGF22 binding = shifts melting point of recombinant human FGF22; recombinant FGF22 thermal shift, SYPRO orange fluorescence; percent of sucrose octasulfate shift, DMSO zero; 340,000 compounds, 1.5% hits; calls only at 9.99 µM;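 active = melting point raised past a set limit in the mean and every replicate; three in four hits are not shown here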
Ecoli rRNA inh OD600 = second read-out of Ecoli rRNA inh, no call of its own (marks repeat the call); OD600 change, %; measured here: OD600 growth;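 optical density of the mix in the first replicate; 0 = DMSO median and -100 = no signal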
Ecoli rRNA inh RFP = second read-out of Ecoli rRNA inh, no call of its own (marks repeat the call); RFP signal change, %; measured here: RFP humanized mutant strains;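 first replicate; 0 = DMSO median and -100 = no signal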
Starred values were filed as active, the others as inactive; i = inactive; & = joins results of further samples.

A first look, 2 compounds:
The line under a structure holds: Ecoli rRNA inh RFP, MLL AF4-AF9 inh, Ecoli rRNA inh OD600, Ecoli rRNA inh, FGF22 binding
C[C@@H]1CCCCO[C@@H](CN(C)Cc2ccc(C(=O)O)cc2)[C@H](C)CN([C@H](C)CO)C(=O)c2cc(NC(=O)Nc3ccccc3)ccc2O1
    -1.7, -9.9, 6, 4, i
Cc1cccc(CNC(=O)c2sc(=O)n(Cc3ccc(S(C)(=O)=O)cc3)c2C)c1
    -5.3, -7.3, -7, -4, i

Main list, from the first entry:
The line under a structure holds: Ecoli rRNA inh RFP, MLL AF4-AF9 inh, Ecoli rRNA inh OD600, Ecoli rRNA inh, FGF22 binding
C[C@@H]1CCCCO[C@@H](CN(C)Cc2ccc(C(=O)O)cc2)[C@H](C)CN([C@H](C)CO)C(=O)c2cc(NC(=O)Nc3ccccc3)ccc2O1
    -1.7, -9.9, 6, 4, i
Cc1cccc(CNC(=O)c2sc(=O)n(Cc3ccc(S(C)(=O)=O)cc3)c2C)c1
    -5.3, -7.3, -7, -4, i
C[C@H](CO)N1C[C@H](C)[C@H](CN(C)C(=O)CCC(F)(F)F)OCCCC[C@H](C)Oc2ccc(NC(=O)c3ccccc3)cc2C1=O
    -0.4, -8.1, -10, -3, i
C[C@H]1CN([C@@H](C)CO)C(=O)c2cccc(NS(=O)(=O)c3cccs3)c2O[C@@H]1CN(C)CC1CCCCC1
    -0.8, 2.0, 9, 4, i
COc1ccc(NC(=O)Nc2ccc3c(c2)C(=O)N([C@@H](C)CO)C[C@@H](C)[C@H](CN(C)Cc2ccc(Cl)c(Cl)c2)OCCCC[C@@H](C)O3)cc1
    0.0, 2.1, -2, 2, i
O=C(c1cccc(F)c1)N1CC(=O)N2[C@H](CO)[C@@H](c3ccc(-c4ccccc4F)cc3)[C@H]2C1
    19, 2.6, -36, -12, i
CCOC(=O)C1(C)CCN1C(=O)c1cc(C)oc1C (stereo not given)
    -0.8, -3.4, 5, 4, i
Cn1c(N)c(C(=O)CSc2nnc(C3CC3)n2Cc2ccccc2)c(=O)[nH]c1=O
    -0.9, 2.4, 15, 11, i
CCC(C)Sc1ccc(-c2nc3ccc(C)cn3c2NCc2ccccc2)cc1 (stereo not given)
    -32, -7.9&5.6, -56, -19, i
NC(c1csc(Nc2ncccn2)n1)c1ccccc1Cl (stereo not given)
    7.2, -0.9, 1, 12, i
C[C@H]1CN([C@@H](C)CO)C(=O)c2ccccc2-c2ccccc2CO[C@@H]1CN(C)C(=O)Nc1cccc(F)c1
    -1.6, -3.7, 2, 0, i
CCC(=O)N1CC2(C1)[C@@H](c1ccccc1)[C@@H](CO)N2Cc1cc(F)ccc1F
    2.6, -4.6, -7, -2, i
CC[C@@]1(C(=O)OC)N[C@H](CN(C)C(=O)C2CCCCC2)[C@@H]2C(=O)N(Cc3ccccc3)C(=O)[C@@H]21
    1.8, 1.9, -9, -6, i
O=C1C(CCc2ccccc2)ON=C(c2cnccn2)N1Cc1ccc(F)cc1 (stereo not given)
    -6.7, 8.1, 5, -2, i
Cc1ccc(S(=O)(=O)N(C)C[C@H]2OCCCC[C@H](C)Oc3ccc(NS(C)(=O)=O)cc3C(=O)N([C@@H](C)CO)C[C@@H]2C)cc1
    4.3, -16, -5, -6, i

Shown with values ahead of the structure: entries from further up
| Ecoli rRNA inh RFP | MLL AF4-AF9 inh | Ecoli rRNA inh OD600 | Ecoli rRNA inh | FGF22 binding | Structure |
| --- | --- | --- | --- | --- | --- |
| -32 | -7.9&5.6 | -56 | -19 | i | CCC(C)Sc1ccc(-c2nc3ccc(C)cn3c2NCc2ccccc2)cc1 (stereo not given) |
| 7.2 | -0.9 | 1 | 12 | i | NC(c1csc(Nc2ncccn2)n1)c1ccccc1Cl (stereo not given) |
| -1.6 | -3.7 | 2 | 0 | i | C[C@H]1CN([C@@H](C)CO)C(=O)c2ccccc2-c2ccccc2CO[C@@H]1CN(C)C(=O)Nc1cccc(F)c1 |
| 2.6 | -4.6 | -7 | -2 | i | CCC(=O)N1CC2(C1)[C@@H](c1ccccc1)[C@@H](CO)N2Cc1cc(F)ccc1F |
| 1.8 | 1.9 | -9 | -6 | i | CC[C@@]1(C(=O)OC)N[C@H](CN(C)C(=O)C2CCCCC2)[C@@H]2C(=O)N(Cc3ccccc3)C(=O)[C@@H]21 |
| -6.7 | 8.1 | 5 | -2 | i | O=C1C(CCc2ccccc2)ON=C(c2cnccn2)N1Cc1ccc(F)cc1 (stereo not given) |

Going on with the list:
The line under a structure holds: Ecoli rRNA inh RFP, MLL AF4-AF9 inh, Ecoli rRNA inh OD600, Ecoli rRNA inh, FGF22 binding
CC(=O)N[C@H]1CC[C@H](CCNC(=O)C2CCC2)O[C@H]1CO
    0.5, -1.1, -2, -1, i
C[C@@H]1CCCCO[C@@H](CN(C)C(=O)Nc2cccc3ccccc23)[C@H](C)CN([C@@H](C)CO)C(=O)c2cc(NC(=O)Cc3ccccc3)ccc2O1
    -2.1, -0.3, -6, -3, i
COCCCn1c(C(=O)Nc2ccc3c(c2)OCO3)cc2c(=O)n3cccc(C)c3nc21
    -0.1, -4.3, 10, 5, i
CCN(C[C@H]1[C@H](c2ccccc2)[C@@H](CO)N1S(C)(=O)=O)C(=O)C1CC1
    -1.0, 0.1, 10, 5, i
CCCNC(=O)Nc1ccc2c(c1)C(=O)N(C)[C@@H]1CC[C@H](CC(=O)NCCCN(C)C)O[C@H]1CO2
    -1.3, -1.0, 2, 1, i
CCCNC(=O)N1CC2(CN(C)C2)c2c(n(C)c3cc(OC)ccc23)[C@H]1CO
    -0.9, 1.1, 8, 0, i
COCC(=O)N(C)C[C@@H]1Oc2ncc(-c3ccccc3F)cc2C(=O)N([C@@H](C)CO)C[C@@H]1C
    -2.0, -15, 20, 3, i
C[C@@H]1CN([C@@H](C)CO)C(=O)c2cc(C#C[C@@H](C)O)cnc2O[C@H]1CN(C)C(=O)Cc1ccncc1
    -1.7, -1.4, 1, 2, i
Cc1cc2oc(=O)cc(CN(Cc3ccccc3)Cc3ccccc3)c2cc1Cl
    -3.2, 0.0, 11, 6, i
CCOC(=O)c1nnsc1C(OC)Oc1ccccc1 (stereo not given)
    -0.8, -5.5, -5, -8, i
C[C@@H]1CN([C@H](C)CO)C(=O)c2cc(C#CC3CC3)cnc2O[C@H]1CN(C)Cc1ccccc1C(=O)O
    1.2, 3.4, 5, 1, i
CS(=O)(=O)N1C[C@@H](O)COC[C@H]2O[C@H](CC(=O)NCc3ccccc3)CC[C@@H]21
    0.6, 2.9, -7, 4, i
O=C(N[C@H]1C=C[C@H](CC(=O)N2CCOCC2)O[C@H]1CO)c1ccc2c(c1)OCO2
    -2.7, 0.4, 2, 4, i
COc1ccccc1NC(=O)N1CC(=O)N2[C@@H](CO)[C@@H](c3ccc(C#CC(C)C)cc3)[C@@H]2C1
    -3.9, 0.1, -4, -3, i
COc1cccc(S(=O)(=O)N(C)C[C@@H]2OCc3ccccc3-c3c(n(C)c4ccccc34)C(=O)N([C@H](C)CO)C[C@@H]2C)c1
    0.0, 1.6, 3, 1, i
Cc1cc(C(=O)Nc2cccc3c2O[C@H](CN(C)Cc2ccc(C(F)(F)F)cc2)[C@H](C)CN([C@@H](C)CO)C3=O)n(C)n1
    -1.8, -1.2, 2, -1, i
CO[C@@H]1CC[C@H]2CCOc3c(C#N)cccc3C(=O)N(C)C[C@@H](OC)[C@@H](C)C(=O)N(C)C[C@H]1O2
    2.1, 0.3, 2, -3, i

Source: PubChem (Broad Institute)

Not all compounds are listed. The share of hits here may be higher or lower than overall.
